# From PubChem BioAssay
# GALR2 agonist – activates the human galanin receptor 2 | hit rate 0.48% among 140,000 | AID 803 | GALR2-expressing cells, agonist activation read-out | activation, %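 (tested at 5 µM)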;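 active means above mean plus 3 SD of all compounds, about 5% in these data, not always enough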;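 further: 0% = vehicle buffer wells and 100% = reference agonist at full effect; tested in CHO reporter cells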
# Target sequence (O43603 whole entry, looked up): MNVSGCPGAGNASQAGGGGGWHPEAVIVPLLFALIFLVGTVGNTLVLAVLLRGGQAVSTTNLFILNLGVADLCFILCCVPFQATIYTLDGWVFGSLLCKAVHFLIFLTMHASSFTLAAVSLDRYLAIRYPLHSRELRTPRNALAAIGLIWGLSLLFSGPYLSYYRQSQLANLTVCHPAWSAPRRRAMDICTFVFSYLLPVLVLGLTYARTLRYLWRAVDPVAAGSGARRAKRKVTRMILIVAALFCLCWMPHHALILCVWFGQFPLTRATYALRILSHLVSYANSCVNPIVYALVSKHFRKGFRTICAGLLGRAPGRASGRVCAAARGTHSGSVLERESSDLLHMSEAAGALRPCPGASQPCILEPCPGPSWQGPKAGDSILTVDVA
# INS promoter inh – TRM-6 insulin promoter activity inhibition; TRM-6 cells (human fetal islet line), insulin promoter-eGFP reporter, imaging; reporter expression induced with tamoxifen; inhibition, % at 2 µM; AID 1273; hit rate 0.9% among 130,000;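 active means inhibition above the mean plus 3 SD, with well images judged a real hit on visual review, cut at about 60% in these data, passing the limit was not always enough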
# RGS16-Gao HTS – regulators of human RGS16-Galphao interaction; O15492+P09471; bead-based flow cytometry RGS16-Galphao binding, fluorescence; actives lie on both sides; binding response (% of control), % at 10 µM; hit rate 0.38% among 220,000; AID 1441;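 active means below 25% or above 175%, edge rows of some plates excepted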;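 further: Galphao activated by GDP with aluminum fluoride before binding; 100% = wells without compound and 0% = beads without RGS; some results beyond the cut were filed as inactive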
# Target sequence (O15492 whole entry, looked up): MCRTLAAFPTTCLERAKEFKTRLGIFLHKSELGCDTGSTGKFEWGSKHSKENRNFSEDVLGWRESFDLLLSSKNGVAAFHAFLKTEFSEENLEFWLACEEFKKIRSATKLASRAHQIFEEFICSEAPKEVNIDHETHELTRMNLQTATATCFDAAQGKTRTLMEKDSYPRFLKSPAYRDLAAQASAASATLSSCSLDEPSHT
# Target sequence (P09471 whole entry, looked up): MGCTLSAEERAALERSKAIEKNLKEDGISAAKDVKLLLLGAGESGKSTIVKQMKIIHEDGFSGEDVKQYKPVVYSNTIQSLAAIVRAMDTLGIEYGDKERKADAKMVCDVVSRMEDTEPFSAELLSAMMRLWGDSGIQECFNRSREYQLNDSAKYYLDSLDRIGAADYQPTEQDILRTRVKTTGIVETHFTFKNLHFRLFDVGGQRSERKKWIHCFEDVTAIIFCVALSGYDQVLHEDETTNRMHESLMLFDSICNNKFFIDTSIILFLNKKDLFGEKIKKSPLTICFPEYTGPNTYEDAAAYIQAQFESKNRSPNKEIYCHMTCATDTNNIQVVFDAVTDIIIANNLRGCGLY
# PKD1 inh – PKD1 (human) kinase inhibition | inhibition, %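 (about 10 µM by stock and volumes)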 | hit rate 0.056% among 200,000 | Q15139 | PKD1 kinase fluorescence polarization assay | AID 797;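 active means inhibition of 50% or more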;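 further: controls were vehicle for no effect and a reference inhibitor for full effect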
# HSV augment – HSV replication enhancement; hit rate 0.005% among 220,000; AID 1956; HSV replication augmentation in cells, fold increase; maximum fold increase;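 active means peak rise of 1.5-fold or more in the series; tested in PC3 cells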;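 further: first round at 10 µM; read as green reporter fluorescence; hits show the peak of a series up to 25 µM; 1 = signal of infected wells without compound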
# INS promoter inh cell count – recorded beside INS promoter inh, whose call it bears; normalized cell count, %; measured here: cell count, toxicity; reference of the scale not given here;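 cells exposed to compound for 48 h; stained nuclei by imaging scaled within each plate; lower means fewer cells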
# HSV augment primary fold – also measured in HSV augment; calls as there; fold increase; compound at 10 µM; measured here: primary screen fold increase 10 uM; tested in PC3 cells;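 GFP signal in the first replicate; 1 = infected wells without compound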
# Starred values were filed as active, the others as inactive; i = inactive; . = no result given. Rows are unselected (roughly 1.3% active in at least one column).
SMILES	GALR2 agonist	PKD1 inh	HSV augment primary fold	HSV augment	INS promoter inh cell count	INS promoter inh	RGS16-Gao HTS
O=C(c1ccccc1F)c1cc2c(cc1[N+](=O)[O-])OCCO2	.	2	0.91	i	106	-92	108
N#CCNC(=O)c1cccn1-c1ncc(C(F)(F)F)cc1Cl	.	5	1	i	.	.	105
COc1ccc(/C=N/N=C2/SCC(=O)N2Cc2ccccc2)cc1	.	.	1.1	i	.	.	110
COc1ccc(NC(=O)N[C@@H](CCSC)C(=O)O)cc1OC	.	.	0.96	i	.	.	96
COc1ccc(-n2cc(CNCCc3nc(C)cc(C)n3)c(-c3ccccc3Cl)n2)cc1	.	3	0.78	i	99	-32	103
COCCn1c(C)nnc1SCC(=O)Nc1ccccc1[N+](=O)[O-]	.	11	1.1	i	104	-33	108
Cc1oc2ccc(O)cc2c1C(=O)c1ccc([N+](=O)[O-])cc1	-1.1	-3	0.91	i	97	0	124
Cc1ccc(NC(=O)CN(C)C(=O)CSc2nnnn2C)cc1	.	.	1.1	i	.	.	72
O=C(CSc1nnc(SCc2ccccc2)s1)N/N=C/C=C\c1ccco1	-0.5	-12	1.2	i	94	-83	98
CSc1nc2nc3c(c(=O)n2[nH]1)CCC3	-2.4	-2	0.94	i	60	-11	112
CCOC(=O)c1c(C)nc2c(c1-c1ccc(OC)cc1)C(=O)CC(C)(C)C2	0.0	13	1	i	71	-80	106
COc1cccc(C(=O)/C=C/Nc2ccc(S(=O)(=O)Nc3nc(C)cc(C)n3)cc2)c1	0.6	-2	0.91	i	107	-34	102
CC(C)(C)c1ccc(OCCN2CCCC2)cc1	-0.6	-3	0.81	i	55	20	97
Cc1c(S(=O)(=O)c2ccccn2)c(N)n(Cc2ccccc2Cl)c1C	.	.	1	i	.	.	99
COc1ccccc1/C=C\C=N\n1c(C2CCCCC2)n[nH]c1=S	-0.9	-1	0.92	i	94	-21	100
Oc1c(C(c2cccs2)N2CCN(c3ccccc3)CC2)sc2ncnn12 (centres undefined)	-5.1	-5	0.9	i	.	.	100
O=S(=O)(c1ccccc1)c1cnn(-c2ccccc2)c1-c1ccc(Cl)cc1	-2.0	-13	0.92	i	91	-9	104
COc1ccc2c(c1)c(=O)c(Br)c(C)n2Cc1ccccc1	-0.3	-3	0.96	i	.	.	108
COc1ccc(OCC(=O)Nc2ccccc2O)cc1	-1.0	-4	0.95	i	129	-7	99
O=C(COC(=O)c1cccc(S(=O)(=O)N2CCN(c3ccccc3)CC2)c1)NCC1CCCO1 (centres undefined)	.	.	0.89	i	.	.	112
COc1ccc(S(=O)(=O)N2CCOCC2)cc1NC(=O)CN1CCCC1	.	0	1	i	59	30	98
Cc1ccc(C2CC(c3ccccc3C)n3nc(N)nc3N2)cc1 (centres undefined)	0.1	2	0.68	i	.	.	103
CCCC(=O)Nc1ccc(C(=O)Nc2cc(C(F)(F)F)ccc2Cl)cc1	-0.8	-7	0.8	i	117	-17	96
Cc1ccc(C(=O)O)cc1NC(=S)NC(=O)c1ccc([N+](=O)[O-])cc1Cl	-1.1	-2	0.93	i	82	-19	107
CC1=C(C(=O)Nc2cccnc2)C(c2cccnc2)n2nc(-c3cccs3)nc2N1 (centres undefined)	0.2	6	0.95	i	79	38	87
O=C(c1cccc([N+](=O)[O-])c1)c1cc2ccccc2o1	-0.6	-6	0.94	i	108	29	104
CCC(Nc1nc(-c2ccccc2)nc2ccccc12)C(=O)O (centres undefined)	-1.6	-3	1	i	107	17	89
Cc1c(Cl)cccc1NC(=S)NC1CC1	-1.6	-11	1.1	i	60	5	44
CCc1ccc2nc(N)sc2c1	.	4	0.86	i	.	.	100
CCOC(=O)C1=C(CSc2nc(C)cc(C)c2C#N)OC(N)=C(C#N)C1c1cccs1 (centres undefined)	-1.1	5	1	i	.	.	101
CCC(C)COC(=O)c1ccc(C(=O)O)cc1 (centres undefined)	-0.8	1	.	.	103	-6	95
CCOC(=O)C1(CCOC)CCN(Cc2ccc(C(=O)OC)cc2)CC1	.	0	0.81	i	107	33	101
CC(C)c1nc2sc3c(c2c(=O)o1)CCCC3	0.2	-8	1	i	104	-36	97
CCOC(=O)C(NC(C)=O)(Nc1ccc(S(=O)(=O)Nc2ncccn2)cc1)C(F)(F)F (centres undefined)	.	1	0.96	i	.	.	98
O=C(c1ccc([N+](=O)[O-])o1)N1CCc2ccccc2C1	.	.	0.89	i	.	.	106
N/C(Cc1ccc([N+](=O)[O-])cc1)=N\OC(=O)c1cccc(Br)c1	.	-1	0.88	i	.	.	103

# 13 consecutive entries out of the list so far, for reference:
SMILES	GALR2 agonist	PKD1 inh	HSV augment primary fold	HSV augment	INS promoter inh cell count	INS promoter inh	RGS16-Gao HTS
Cc1ccc(C(=O)O)cc1NC(=S)NC(=O)c1ccc([N+](=O)[O-])cc1Cl	-1.1	-2	0.93	i	82	-19	107
CC1=C(C(=O)Nc2cccnc2)C(c2cccnc2)n2nc(-c3cccs3)nc2N1 (centres undefined)	0.2	6	0.95	i	79	38	87
O=C(c1cccc([N+](=O)[O-])c1)c1cc2ccccc2o1	-0.6	-6	0.94	i	108	29	104
CCC(Nc1nc(-c2ccccc2)nc2ccccc12)C(=O)O (centres undefined)	-1.6	-3	1	i	107	17	89
Cc1c(Cl)cccc1NC(=S)NC1CC1	-1.6	-11	1.1	i	60	5	44
CCc1ccc2nc(N)sc2c1	.	4	0.86	i	.	.	100
CCOC(=O)C1=C(CSc2nc(C)cc(C)c2C#N)OC(N)=C(C#N)C1c1cccs1 (centres undefined)	-1.1	5	1	i	.	.	101
CCC(C)COC(=O)c1ccc(C(=O)O)cc1 (centres undefined)	-0.8	1	.	.	103	-6	95
CCOC(=O)C1(CCOC)CCN(Cc2ccc(C(=O)OC)cc2)CC1	.	0	0.81	i	107	33	101
CC(C)c1nc2sc3c(c2c(=O)o1)CCCC3	0.2	-8	1	i	104	-36	97
CCOC(=O)C(NC(C)=O)(Nc1ccc(S(=O)(=O)Nc2ncccn2)cc1)C(F)(F)F (centres undefined)	.	1	0.96	i	.	.	98
O=C(c1ccc([N+](=O)[O-])o1)N1CCc2ccccc2C1	.	.	0.89	i	.	.	106
N/C(Cc1ccc([N+](=O)[O-])cc1)=N\OC(=O)c1cccc(Br)c1	.	-1	0.88	i	.	.	103

# (further entries)
SMILES	GALR2 agonist	PKD1 inh	HSV augment primary fold	HSV augment	INS promoter inh cell count	INS promoter inh	RGS16-Gao HTS
O=C(NNC(=O)C1CC=CCC1C(=O)O)c1cccs1 (centres undefined)	.	-1	0.69	i	59	38	102
CNc1nc(Cl)nc(Nc2ccccc2)n1	.	2	0.93	i	.	.	101
NC(=O)c1ccccc1OCCOCCOCCOc1ccccc1C(N)=O	-1.6	6	0.96	i	94	-62	100
CCOC(=O)C(C)n1cnc2sc(C)c(C)c2c1=O (centres undefined)	-0.5	-6	0.93	i	23	0	103
COc1cccc(C(=O)NNC2=C(C(=O)C(F)(F)F)CCC2)c1	.	.	1.1	i	.	.	104
COc1ccc(/C=C/c2cc[n+](C(=O)Cc3ccccc3)cc2)cc1	.	2	0.95	i	.	.	101
C/C(=N\NC(=S)NCc1ccccc1)c1ccc2c(c1)OCCO2	.	-6	0.93	i	.	.	99
CC1(C)CC(=O)C=C(Nc2ccc(Br)cn2)C1	0.4	-5	1.1	i	.	.	98
Nc1ccc(S(=O)(=O)NC2=NCCCCC2)cc1N	.	-8	1	i	.	.	96
Cc1c(/C=N/N=C2\CCC3C4CCc5cc(O)ccc5C4CCC23C)cnn1C (centres undefined)	-1.9	-6	0.95	i	97	-23	113
COc1ccc(O)c(C(=O)c2cc(C#N)c(=O)n(CCN3CCOCC3)c2)c1	-2.1	-30	1	i	59	-27	122
COc1ccc(C2(CNC(C)=O)CCCC2)cc1OC	-1.4	-12	1.1	i	109	-55	104
COc1ccc(-c2nnc(SCC(=O)c3cccs3)n2-c2ccc(Cl)cc2)cc1	-0.1	4	0.98	i	127	-24	103
CCc1nnc(NC(=O)c2ccc3nc(CC)c(CC)nc3c2)s1	.	-1	0.93	i	.	.	98
O=C(Cn1nc(Cc2cccnc2)c2ccccc2c1=O)NCc1ccc2c(c1)OCO2	-1.3	1	0.91	i	.	.	102
COC(=O)c1c(C)[nH]c(C(=O)/C=C/c2cccc(Cl)c2)c1C	0.9	-2	0.72	i	163	26	99
Cc1[nH]c(=O)[nH]c(=O)c1/C=N/NC(=O)[C@@H](NC(=O)OC(C)(C)C)C(C)C	-2.9	-18	1	i	99	0	102
Cc1ccccc1CN(C)CC(=O)Nc1ccccc1-c1ccccc1	0.6	7	1.3	i	68	-18	146
O=C(CCC1COc2ccccc2O1)Nc1ncccc1O (centres undefined)	-2.1	0	0.92	i	103	23	97
COC(=O)c1c(NC(=O)C(Cl)Cl)sc2c1C(C(=O)OC)CC2 (centres undefined)	.	.	0.82	i	.	.	98
CCOc1ccc(C2=NNC(c3cccs3)=Nc3ccc(OC)cc32)cc1OCC	-1.5	-6	0.97	i	134	12	61
N#CCSc1nnc(-c2sc3ccccc3c2Cl)o1	-0.3	-13	0.83	i	75	-423	108
Cc1cc(N2CCOCC2)n2nc(-c3cccc(F)c3)cc2n1	-0.2	-7	0.97	i	69	-25	109
COC(=O)c1ccc(NC(=O)CN(c2ccc3c(c2)OCO3)S(C)(=O)=O)cc1	-1.6	-6	0.94	i	99	0	86
Cc1ccc(C)c(NS(=O)(=O)c2cc(C(=O)NCCSC3CCCCC3)ccc2C)c1	-1.7	-2	0.87	i	.	.	99
COc1cc(/C=C/C(=O)O)cc(S(=O)(=O)Nc2ccc3c(c2)OCO3)c1OC	.	-7	0.98	i	.	.	101
CCOc1ccc2c(C)nc(NC3=NC(C)(C)C=C(C)N3)nc2c1	-2.4	-7	0.75	i	63	-347	100
Cc1ccc(/C=C2\SC(=S)N(c3cccnc3)C2=O)cc1	.	-8	1	i	135	9	87
CC1(C)CC(=O)C(CC(=O)Nc2cc(C(F)(F)F)ccc2Cl)C(=O)C1	.	-4	1.1	i	.	.	102
N=C1C(=O)OCC1c1ccccc1NC(=O)c1ccc(F)cc1 (centres undefined)	-1.1	-1	0.96	i	72	7	130
CN1CCN(CC(=O)Nc2ccc(Cl)cc2Cl)CC1	-2.0	-5	1.1	i	107	-331	102
O=C(/C=C/c1ccccc1Cl)c1ccccc(=O)c1O	-0.8	6	0.64	i	3	-142	106
O=C(O)CCCNC(=O)CCCNC(=O)C(c1ccccc1)c1ccccc1	-1.5	-3	1	i	.	.	108
O=C(Nc1cccc([N+](=O)[O-])c1)C1CC(=O)N(C2CCCCC2)C1 (centres undefined)	.	-3	1.1	i	.	.	108
Cc1ccc(Nc2c(F)c(F)c(F)c(F)c2C(=O)O)cc1	.	9	0.96	i	70	0	102
CC(C(=O)N(C)Cc1ccccc1)N1CCN(C/C=C/c2ccccc2)CC1 (centres undefined)	.	.	1.3	i	.	.	90
COC(=O)c1sc(N)c(C(=O)OC)c1CSc1nnc(-c2ccccc2Cl)n1C	-3.6	-4	0.65	i	112	21	100
O=C(NNc1ccccc1)C(CCO)C(=O)NNc1ccccc1	.	1	0.93	i	.	.	100
Cc1ccc(S(=O)(=O)n2nc(C)c(C#N)c2N)cc1	0.5	2	0.95	i	90	-57	105
CCOC(=O)C1CCN(C(c2ccccn2)c2c(C)[nH]c3ccccc23)CC1 (centres undefined)	-2.2	2	0.81	i	86	50	104
Cc1ccccc1CC1(CO)CCCN(Cc2nc(-c3cccs3)oc2C)C1 (centres undefined)	.	-2	1.1	i	121	-57	110
Cc1cc(NC2C3CC4CC(C3)CC2C4)n2nnnc2n1 (centres undefined)	-1.6	-15	0.86	i	81	6	104
CC(NC(=O)c1ccc(F)cc1)c1nc2ccccc2n1Cc1ccccc1F (centres undefined)	-0.7	0	1.1	i	115	3	102
Nc1ccnc(C(F)(F)F)c1C(=O)c1ccccc1	-2.3	8	0.87	i	.	.	65
COc1ccccc1NC(=O)Cn1cncc1-c1ccc([N+](=O)[O-])cc1	-1.3	-11	.	.	.	.	103
Cc1ccc(OCc2nnc(N)s2)cc1C	.	.	0.97	i	.	.	102
